# VDR inhibitor – Inhibitors of the vitamin D receptor (VDR): qHTS | VDR-SRC2-3 peptide fluorescence polarization, 2 h | hit rate 0.93% among 400,000 | Vitamin D3 receptor (Homo sapiens), P11473 | Potency, µM, inactives show max response, negative = inhibition, actives largely listed as inhibitors; active = well fitted inhibition curve with a large enough effect; inconclusive = small, poorly fitted or top-dose-only effect, or another doubt; inactive = no such curve, though single readings can be large or run the other way; also: series mostly up to about 120 µM
# Target sequence (P11473 whole entry, looked up): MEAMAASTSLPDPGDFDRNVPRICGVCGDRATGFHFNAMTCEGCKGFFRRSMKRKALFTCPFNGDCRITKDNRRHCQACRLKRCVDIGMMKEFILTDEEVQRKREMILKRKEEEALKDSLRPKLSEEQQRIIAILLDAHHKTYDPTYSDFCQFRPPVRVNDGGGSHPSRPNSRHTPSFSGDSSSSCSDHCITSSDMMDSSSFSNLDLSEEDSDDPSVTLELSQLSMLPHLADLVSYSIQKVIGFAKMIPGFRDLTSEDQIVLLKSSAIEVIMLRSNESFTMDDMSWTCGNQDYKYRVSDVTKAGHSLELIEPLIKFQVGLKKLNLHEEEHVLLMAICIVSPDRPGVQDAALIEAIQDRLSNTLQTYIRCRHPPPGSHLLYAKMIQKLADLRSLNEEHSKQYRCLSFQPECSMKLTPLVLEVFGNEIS
#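 Fluorescence polarization assay of small-molecule disruption of VDR binding to coregulator peptide SRC2-3. Compounds and controls pin-transferred, then read after 2 h incubation at ambient room temperature.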
# Active calls of the source: *; ? = inconclusive; & = joins results of further samples; [ ] = remark or other dose. % is scaled to controls: 0 for no effect and ±100 for the full control effect; potency is read from the fitted curve at half-maximal effect.
canonical_smiles,VDR inhibitor
CC(=O)N1c2ccc(S(=O)(=O)N3CCC(C(=O)NC4CCC(C)CC4)CC3)cc2CC1C (stereo not drawn),17%
COc1ccccc1CNc1ncncc1-c1ccccc1CN(C)C,-28%
Cc1ccc(CN(C(=O)CNC(=O)c2cccs2)C(C(=O)NCC2CCCO2)c2ccccc2)cc1 (stereo not drawn),9%
Cc1cc(C(=O)NCc2ccc(Cl)cc2)c2c(C)nn(-c3ccccc3)c2n1,3%
FC(F)Sc1ccc(NC(=S)NCC2CCCCC2)cc1,4%
CCOC(=O)NNC(=O)c1[nH]c2ccc(Br)cc2c1-c1ccccc1,-16%
CCOc1ccc(NC(=O)C(CC(C)C)N2Cc3ccccc3C2=O)cc1 (stereo not drawn),8%
CCOc1ccc(-c2ccc(NS(=O)(=O)c3cc(C)c(C)cc3C)cc2)nn1,13%
CC(/C=N/NC(=O)c1cc(-c2cccn2C)n[nH]1)=C\c1ccccc1,8%
CC1=C(C(=O)Nc2ccc(C)cc2C)C(c2ccc([N+](=O)[O-])cc2)n2ncc(C(=O)Nc3ccc(F)cc3)c2N1 (stereo not drawn),-5%
COc1ccc(Cl)cc1NC(=O)COC(=O)C1CC1,19%
CC(C)[C@H](NC(=O)c1ccco1)C(=O)OCC(=O)Nc1ccccc1OC(F)F,-13%
CNc1nc(C)cc(C)c1S(=O)(=O)c1ccc(Cl)cc1,5%
COc1ccc(OC)c(CC(NC(C)=O)C(=O)NC2CCN(C(=O)c3cccc(C)c3)CC2)c1 (stereo not drawn),12%
COc1cc(CNc2cccc(F)c2)cc(Br)c1O,6%
COc1ccc(CN(Cc2nc3ccccc3c(=O)[nH]2)C(=O)NC2CCCCC2)cc1,5%
CCOC(=O)N1CCN(C(=O)CCc2ccc(S(=O)(=O)NCC(C)C)cc2)CC1,-11%
O=C(c1ccc(F)cc1)N1c2nc(-c3ccco3)nn2C2(CCCCC2)[C@@H]2CCCC[C@@H]21,8%
O=C(CN1CCN(C(=O)N2CCOCC2)CC1)Nc1ccc(Br)cc1,-5%
O=C(COc1ccc(Cl)cc1Br)N1CCN(S(=O)(=O)c2ccccc2)CC1,-17%
COc1ccc(/C=C2/C(=O)N(c3nc4ccccc4s3)N=C2CSc2ccc(Cl)cc2)cc1,-3%
COc1ccc(CCN(C)C(=O)CSc2nnc(C3CC3)n2N)cc1OC,-21%
Cc1cc(C(=O)N2CCN(c3ccccc3)CC2)c(C)o1,18%
CCOC(=O)c1c(C)[nH]c(C(=O)COc2ccc3c(c2)OCO3)c1C,-13%
O=C(N/N=C/c1ccccn1)c1ccc(Br)cc1,-10%

# The closing 2 records of the section above come first, to join the parts.
canonical_smiles,VDR inhibitor
CCOC(=O)c1c(C)[nH]c(C(=O)COc2ccc3c(c2)OCO3)c1C,-13%
O=C(N/N=C/c1ccccn1)c1ccc(Br)cc1,-10%
CC(C)C(NC=C1C(=O)OC(C)(C)OC1=O)C(=O)O (stereo not drawn),-9%
CCOc1ccc(/C=C/C2=Cc3c(sc(NC(=O)CSc4n[nH]c(N)n4)c3C#N)C(C)(C)C2)cc1,-5%
CCCNC(C)C(=O)Nc1ccccc1C (stereo not drawn),4%&7%&12%
Cc1ccc(CNc2ccc(N3CCOCC3)cc2)s1,10%
Cc1ccc(S(=O)(=O)N(C)C)cc1NC(=O)COC(=O)c1ccc2ccccc2n1,-13%
CCOc1ccccc1C(=O)N(Cc1ccc(N(C)C)cc1)Cc1ccco1,4%
COc1ccc(CSCC(=O)Nc2ccccc2)cc1[N+](=O)[O-],-2%
Cn1c(-c2cc3ccc(OC(=O)C(C)(C)C)cc3oc2=O)nc2ccccc21,-7%
CC(C)(C)C(=O)N1CCN(C(c2ccccc2)c2ccccc2)CC1,-16%
CCCOc1ccc(N2C(=O)CC(NCc3ccc(S(N)(=O)=O)cc3)C2=O)cc1 (stereo not drawn),4%
Cc1nc(CCNC(=O)CC2C(=O)NCCN2CC(C)(C)C)nc2c1CCC2 (stereo not drawn),-15%
C=C1c2cc(C)c(C)cc2NC(=O)N1c1ccccc1,3%
COCCN(C(=O)CNC(=O)c1ccco1)C(C(=O)NC1CCCC1)c1ccccc1 (stereo not drawn),-6%
C/C(=C\c1cc2ccccc2o1)C1Nc2cccc3cccc(c23)N1,-23%
Cc1cccc(CNc2ccnc(-c3cccnc3)n2)c1,2%
Cc1ccc(N2C(=O)CSC2c2ccccn2)cc1Cl (stereo not drawn),-6%
Cc1cc(S(=O)(=O)N2CCCC2)ccc1OCC(=O)N1CCC(C(N)=O)CC1,3%
Cc1cccc(-c2noc(CCCOc3ccc(Cl)cc3Cl)n2)c1,-6%
Cn1c(=O)n(CCCO)c(=O)c2c1nc1n2CCCN1Cc1ccccc1,-6%
COc1cccc(C(=O)c2cn(CC(=O)NCc3ccccc3)c3nc(C)ccc3c2=O)c1,12%
Cc1ccc(C)c(Cn2c3ccccc3c3cnn(CC(=O)NCCCc4ccccc4)c(=O)c32)c1,6%
Cc1cc(C(=O)OCC(=O)NCCc2ccc(S(N)(=O)=O)cc2)c2ccccc2n1,-3%
CC(NC(=O)COC(=O)Cc1ccc(-c2ccccc2)cc1)c1ccccc1 (stereo not drawn),3%
CCOc1cccc(C(=O)Nc2ccc3c(c2)OCCO3)c1,-5%
CC(CCc1ccc(O)cc1)NCc1ccc(Cl)cc1Cl (stereo not drawn),3%
C1=C(c2ccco2)N2CCN=C2S1,-1%
COc1cc(OC)cc(-c2nnc(SCC(=O)c3ccc([N+](=O)[O-])cc3)o2)c1,6%
CCN(CC)S(=O)(=O)c1ccc(NC2c3ccccc3C(=O)N2CCN2CCOCC2)cc1 (stereo not drawn),5%
COC(=O)C1=C(O)CSC1=Nc1ccc(C)cc1,-19%
CCc1ccc(CN2CCSCC2)cc1,-15%
CCOC(=O)C1=C(COC(=O)COc2ccc(C(=O)CC)cc2)NC(=O)NC1C (stereo not drawn),15%
Cn1c(CC(=O)Nc2ccccc2F)nnc1SCC(=O)Nc1nncs1,4%
O=C(COC(=O)COc1ccc(Cl)cc1)Nc1ccc(F)c([N+](=O)[O-])c1,-6%
O=C(CN(c1ccc(Cl)cc1)S(=O)(=O)c1ccccc1)N/N=C/c1ccco1,14%
O=C(NCCOc1ccccc1)c1ccc2c(c1)S(=O)(=O)c1cc(Cl)ccc1C2=O,4%
CCOc1ccc(-n2ccnc2SCC(=O)Nc2nnc(C)s2)cc1,-6%
CCCCc1nnc(NC(=O)c2ccc(OCc3c(C)noc3C)cc2)s1,2%
CNC(=S)Nc1ccc(-c2nc3ccc(C)cc3s2)cc1,-20%
COc1ccc(-c2nc(-c3ccccc3OC)no2)cc1OC,12%
CN(C(=O)Cn1nc(C(=O)O)c2ccccc2c1=O)C1CCCCC1,-1%
Cc1ccc(N(CC(=O)N2CCc3ccccc3C2)S(C)(=O)=O)cc1,7%
CCOc1ccccc1CNC(=O)c1nn(CC)cc1[N+](=O)[O-],-9%
NS(=O)(=O)c1ccc(NC(=O)N[C@@H](Cc2ccccc2)C(=O)O)cc1,-15%
CC(=O)C[C@@H](O)CC(=O)[C@H]1OC(=O)[C@H](C)CCCCc2ccccc21,-9%
COC(=O)Nc1nc(-c2ccccc2)c(C(=O)c2ccc(Cl)cc2)s1,6%
COc1cc(N)c(Cl)cc1C(=O)OCC(=O)N1CCCCCC1,6%
O=C(Oc1ccc(N2C(=O)C3C4CCC(C4)C3C2=O)cc1)c1ccco1 (stereo not drawn),10%
OCC1CCCN(C(=S)Nc2ccc(OC(F)F)cc2)C1 (stereo not drawn),6%
CCC(C)n1c(=O)c2sccc2n2c(CCCC(=O)N3CCN(c4ccccc4)CC3)nnc12 (stereo not drawn),-5%
O=C1OCCN1C(=O)[C@H]1[C@H](c2ccc(Cl)cc2)C(c2ccccc2)=NN1c1ccc(Br)cc1,4%&-1%

# Compounds shown so far that have two or more sulfur atoms:
canonical_smiles,VDR inhibitor
FC(F)Sc1ccc(NC(=S)NCC2CCCCC2)cc1,4%
COc1ccc(/C=C2/C(=O)N(c3nc4ccccc4s3)N=C2CSc2ccc(Cl)cc2)cc1,-3%
CCOc1ccc(/C=C/C2=Cc3c(sc(NC(=O)CSc4n[nH]c(N)n4)c3C#N)C(C)(C)C2)cc1,-5%
Cn1c(CC(=O)Nc2ccccc2F)nnc1SCC(=O)Nc1nncs1,4%
CCOc1ccc(-n2ccnc2SCC(=O)Nc2nnc(C)s2)cc1,-6%
CNC(=S)Nc1ccc(-c2nc3ccc(C)cc3s2)cc1,-20%

# More compounds
canonical_smiles,VDR inhibitor
Cc1nc2ccc(Cl)cc2c(-c2ccccc2)c1CC(=O)O,-9%
CC(=O)NCCNC(=O)C1CCCCN1S(=O)(=O)c1ccccc1 (stereo not drawn),13%
CNC(=O)C1Cc2ccccc2CN1S(=O)(=O)c1ccc(OC)c(OC)c1 (stereo not drawn),-22%
C[C@@H]1CN([C@@H](C)CO)C(=O)Cc2cc(NC(=O)C3CCCCC3)ccc2O[C@H]1CN(C)S(=O)(=O)c1ccccc1,-7%
O=C(COC(=O)CCN=C1NS(=O)(=O)c2ccccc21)NC1CCCCCCC1,-20%
CCOC(=O)N1CCN(S(=O)(=O)c2cn(C)c(=O)n(C)c2=O)CC1,-16%
O=C(c1cccs1)c1cn(CCOc2ccc(F)cc2)c2ccccc12,-1%
CCOC(=O)c1ccc(S(=O)(=O)N2CCN(C(C)=O)CC2)cc1,-3%
O=C(CCS(=O)(=O)c1ccccc1)N(CCCN1CCOCC1)c1nc2c(F)cccc2s1,?
COC(=O)c1ccc(C23CC4(C2)[C@H](CN(Cc2ccc(C(F)(F)F)cc2)[C@@H]4c2ccccc2)C3c2ccccc2)cc1 (stereo partly drawn),-8%
COc1ccc2[nH]c(=O)c(CN(CC3CCCO3)C(=O)Nc3ccc(F)cc3)cc2c1 (stereo not drawn),-22%
CC(/C=N/NC(=O)c1cccs1)=C\c1ccccc1,-2%
O=C(Nc1ccc(C(F)(F)F)cc1)C1CCCN(c2cnccn2)C1 (stereo not drawn),2%
O=C(Cn1nc(-c2ccccc2)ccc1=O)NCc1ccc2c(c1)OCO2,-5%
c1csc(CNc2ncnc3ccc(-c4ccc5c(c4)OCO5)cc23)c1,-2%&-2%
Cc1ccc(OCC(=O)Nc2ccc3c(c2)nc(CCNC(=O)c2ccco2)n3C)cc1,18%
CC(C)Oc1ccc(/C=N/NC(=O)C2CCCN2S(=O)(=O)c2ccc(Cl)cc2)cc1 (stereo not drawn),9%
COc1ccccc1C1CCN(Cc2c(C)[nH]c3ccccc23)CC1,0%
Nn1c(Cc2cccc3ccccc23)nnc1SCCOc1ccc(F)cc1,-4%
COc1ccccc1C(=O)NCCC(=O)NCC1COc2ccccc2O1 (stereo not drawn),-2%
COc1ccc(S(=O)(=O)N(C)CC(=O)Nc2ccc3c(c2)OCO3)cc1,-1%
O=c1[nH]c2ccccc2nc1Cc1ccccc1,12%
CC(=O)c1ccc(NC(=O)C(C)n2c3ccccc3c3nc(=O)cc(C)n32)cc1 (stereo not drawn),-18%
CC1CCCCN1C(=O)C(=O)c1cn(CC(=O)N2CCCC2)c2ccccc12 (stereo not drawn),35%[activator]
CCN(CC)C(=O)CSc1nnc(C2CCCCC2)o1,-15%
Brc1ccc(-c2cn3ccccc3n2)cc1,1%
COCC1CCN(C(=O)C2CCC(=O)N(CCc3ccc(Cl)cc3)C2)CC1 (stereo not drawn),-9%
O=C1Nc2cc(C(F)(F)F)ccc2N2CCCCC12 (stereo not drawn),-22%
COc1cc(/C=N/NC(=O)CCN2CCN(c3ccccc3)CC2)cc(OC)c1OC,9%
O=C(NCc1cccnc1)c1cccc2c1C(=O)N(Cc1cccnc1)C2,-13%
O=C1COc2ccc(C(=O)COC(=O)c3ccccc3Cl)cc2N1,-9%
Cc1ccc(/C=C/C(=O)OCC(=O)Nc2ccccc2Sc2ccccc2)cc1,-13%
Cc1ccc(NC(=S)Nc2ccc(Cl)c(Cl)c2)c(OC(F)F)c1,-14%
Cc1ccc(NC(=O)Nc2cnccn2)cc1,13%
COc1cccc(-c2nc(Cn3c(=O)cc(C)c4c(C)nn(-c5ccccc5)c43)c(C)o2)c1OC,-11%
COc1ccc(CN(C)C(=O)[C@H](Cc2ccccc2)NC(=O)c2ccco2)c(OC)c1,-8%
CC(C)C(=O)NC(=S)Nc1nnn(C)n1,9%
COc1cccc(-c2cc(C(F)(F)F)n3nc(C(=O)N4CCCCC4c4cccnc4)cc3n2)c1 (stereo not drawn),-10%
CC1=Nc2nc(N3CCCCC3)c(C#N)c3c4c(nc(c23)N1)N(c1ccc(C(C)C)cc1)C(=O)C4,7%
CN1CCN(S(=O)(=O)c2ccc(NCc3ccc4c(c3)OCO4)nc2)CC1,0%
Cn1ccnc1CN1CCCCC1C(=O)Nc1ccc(Oc2cccnc2)cc1 (stereo not drawn),24%
O=C(Nc1ccc(Cl)cc1)[C@@H]1[C@@H]2C(=O)N(c3ccc(Cl)cc3)C(=O)[C@@H]2[C@H]2C=CC=NN21,?
O=C(c1ccc2nccnc2c1)N1CCN(c2ccccc2)CC1,5%
O=C1CC(N2CCN(S(=O)(=O)c3ccc([N+](=O)[O-])cc3)CC2)C(=O)N1c1ccccc1F (stereo not drawn),3%
CC(C)c1cc(-c2cc(C(=O)NCc3ccccc3)on2)nc(NC2CCCC2)n1,-21%
C(=N\Nc1nc2ccccc2[nH]1)/c1ccccn1,0%

# Assay outcomes (PubChem BioAssay)

# Only part of the results is shown; rates above refer to the full screens.
